Screening data (PubChem)
DUX4 txn inh = inhibitors of DUX4-driven ZSCAN4 reporter expression, primary screen, 293T cells, Gaussia and Italica luciferase. activity change, negative = inhibition, % (no concentration beside the values). AID 1224904, 2016. actives 0.8% (n = 37,000). 293T-iDUX4 ZSCAN4-Gaussia luciferase reporter, 24 h; hits give low values;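 active means -10% or lower and over 25 points stronger than a control reporter; inconclusive means -10% or lower with a smaller gap; inactive means above -10%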;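 further: 0% = median of neutral control wells and -100% = median of positive control wells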
DUX4 txn inh difference = recorded beside DUX4 txn inh, whose call it bears; Gaussia minus Italica difference, %; measured here: selective DUX4 reporter inhibition;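 worked out from the two reporters; negative = selective loss of the DUX4 reporter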
DUX4 txn inh control = second read-out of DUX4 txn inh, no call of its own (marks repeat the call); activity change, negative = inhibition, %; measured here: Italica tet-on control reporter;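 0 = neutral control and -100 = positive control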
Starred values were filed as active, the others as inactive; ? = inconclusive; · = not tested or not shown. The list is partial (hit frequency here may not be typical).

DUX4 txn inh	DUX4 txn inh difference	DUX4 txn inh control	smiles
-9	-3	-6.1	OC[C@@H]1[C@H](c2ccc(C#Cc3ccccc3)cc2)[C@H]2CN(Cc3cncnc3)CCCCN12
3	6	-3.5	C[C@H]1CN([C@@H](C)CO)C(=O)c2cccc(NC(=O)c3cnccn3)c2O[C@H]1CN(C)C(=O)Nc1ccc2c(c1)OCO2
4	3	1.0	COc1cccc(-c2ccc3n(c2=O)C[C@@H]2[C@@H](CO)[C@H](C(=O)NCC4CC4)N(C(C)=O)[C@H]32)c1
2	-2	3.9	CNC(=O)C[C@H]1CC[C@H]2[C@H](COc3ccc(NC(=O)Nc4ccc(F)c(F)c4)cc3C(=O)N2C)O1
1	4	-3.2	Cc1cccc(S(=O)(=O)N2C[C@@H]3[C@H](c4ccccc42)[C@H](CO)N3CC2CCCC2)c1
-1	-3	2.8	C[C@H](CO)N1C[C@H](C)[C@@H](CN(C)C(=O)c2cccnc2)Oc2cc(C#CC3(O)CCCC3)ccc2S1(=O)=O
-6	-5	-0.9	CO[C@@H]1CN(C)C(=O)c2ccc(NS(=O)(=O)c3ccc(C)cc3)cc2OC[C@@H](C)N(Cc2nccs2)C[C@@H]1C
15	10	4.7	COc1ccc2c3c([nH]c2c1)[C@H](CO)N(S(C)(=O)=O)CC31CN(C(=O)c2cccnc2)C1
8	5	3.4	CCN1[C@@H]2Cn3c(ccc(-c4ccccc4F)c3=O)[C@H]1[C@@H](C(=O)N1CCCCC1)[C@@H]2CO
2	4	-1.6	COc1ccccc1-c1ccc2c(c1)O[C@@H](CN(C)CC1CCOCC1)[C@H](C)CN([C@H](C)CO)S2(=O)=O
6	8	-2.1	CC(=O)N1C[C@H]2[C@@H](c3ccccc31)[C@@H](CO)N2S(=O)(=O)c1ccccc1
4	3	1.0	CCC(=O)N[C@H]1C=C[C@@H](CC(=O)NCc2cc(F)cc(F)c2)O[C@@H]1CO
0	1	-1.0	COc1ccc(CN2C[C@@H](O)COC[C@@H]3O[C@@H](CC(=O)N(C)C)CC[C@H]32)cc1
11	4	6.7	C[C@@H](NC(=O)[C@@H]1[C@@H](CO)[C@@H]2Cn3c(cccc3=O)[C@@H]2N1CC1CC1)c1ccccc1
-52*	-28*	-24*	C[C@@H]1CN([C@H](C)CO)C(=O)c2ccccc2-c2ccccc2CO[C@@H]1CN(C)Cc1ccc(Cl)c(Cl)c1
9	19	-10	C[C@H](O)C#Cc1ccc([C@H]2[C@@H](CO)N3CCCCN(C(=O)Nc4ccccc4)C[C@@H]23)cc1
-1	0	-0.9	CN(C)C(=O)c1cccc(-c2ccc([C@@H]3[C@@H](C#N)N(C(=O)C4CCC4)[C@@H]3CO)cc2)c1
0	1	-0.6	O=C(Nc1ccc(F)cc1)N1[C@H](CO)[C@H]2c3ccccc3NC[C@H]21
2	2	-0.9	Cc1cccc(S(=O)(=O)N[C@@H]2CC[C@@H](CCn3cc(-c4ccccn4)nn3)O[C@@H]2CO)c1
2	-3	5.3	CO[C@@H]1CN(C)C(=O)c2ccc(NC(=O)NC(C)C)cc2OC[C@@H](C)N(C(=O)NC(C)C)C[C@@H]1C
1	-2	3.5	C[C@@H]1CN([C@H](C)CO)C(=O)c2ccccc2-c2ccccc2CO[C@H]1CN(C)C(=O)c1ccccc1
2	-31	33	COc1ccc2c3c(n(C)c2c1)[C@H](CO)N(C(=O)Nc1ccc(F)cc1)CC31CCN(C(=O)c2ccccc2F)CC1
-3	0	-2.6	COCCNC(=O)C[C@H]1C[C@H]2c3cc(NC(=O)Nc4ccccc4F)ccc3O[C@H]2[C@H](CO)O1
4	1	2.9	Cc1ccc(S(=O)(=O)N[C@H]2CC[C@@H](CCNC(=O)C3CCOCC3)O[C@H]2CO)cc1
0	-2	2.1	C/C=C/c1ccc([C@H]2[C@@H](CO)N(CCC)[C@@H]2CNC(=O)NC2CCCC2)cc1
3	5	-2.2	CCC(=O)N1[C@@H]2c3ccc(/C=C/c4ccccc4)c(=O)n3C[C@H]1[C@H](CO)[C@H]2C(=O)N(C)C
5	2	2.9	CCCNC(=O)N1C[C@@H]2[C@H](c3ccccc31)[C@H](CO)N2Cc1cc(F)ccc1F
-3	-3	-0.4	C[C@@H]1CN([C@@H](C)CO)C(=O)c2cc(C#Cc3ccccn3)cnc2O[C@@H]1CN(C)Cc1cccnc1
-3	-8	4.7	O=C(C[C@@H]1C=C[C@@H](NC(=O)c2cnccn2)[C@@H](CO)O1)NCc1ccccc1F
0	9	-9.0	O=C(C[C@H]1CC[C@@H]2[C@H](COC[C@H](O)CN2Cc2cccc(C(F)(F)F)c2)O1)NCc1ccncc1

Quoted at random: six entries already listed
DUX4 txn inh	DUX4 txn inh difference	DUX4 txn inh control	smiles
2	2	-0.9	Cc1cccc(S(=O)(=O)N[C@@H]2CC[C@@H](CCn3cc(-c4ccccn4)nn3)O[C@@H]2CO)c1
-6	-5	-0.9	CO[C@@H]1CN(C)C(=O)c2ccc(NS(=O)(=O)c3ccc(C)cc3)cc2OC[C@@H](C)N(Cc2nccs2)C[C@@H]1C
11	4	6.7	C[C@@H](NC(=O)[C@@H]1[C@@H](CO)[C@@H]2Cn3c(cccc3=O)[C@@H]2N1CC1CC1)c1ccccc1
-3	0	-2.6	COCCNC(=O)C[C@H]1C[C@H]2c3cc(NC(=O)Nc4ccccc4F)ccc3O[C@H]2[C@H](CO)O1
8	5	3.4	CCN1[C@@H]2Cn3c(ccc(-c4ccccc4F)c3=O)[C@H]1[C@@H](C(=O)N1CCCCC1)[C@@H]2CO
15	10	4.7	COc1ccc2c3c([nH]c2c1)[C@H](CO)N(S(C)(=O)=O)CC31CN(C(=O)c2cccnc2)C1

The listing continues.
DUX4 txn inh	DUX4 txn inh difference	DUX4 txn inh control	smiles
4	4	-0.7	CC(=O)N1[C@@H]2c3ccc(C4=CCCCC4)c(=O)n3C[C@@H]2[C@@H](CO)[C@@H]1C(=O)N1CCCCC1
1	-1	1.9	O=C(C[C@@H]1CC[C@H]2[C@@H](COC[C@@H](O)CN2Cc2cc(F)ccc2F)O1)NCc1ccccc1
12	10	2.1	C/C=C/c1ccc([C@H]2[C@@H](CO)N(C(C)=O)C23CN(C(=O)NC2CCCCC2)C3)cc1
-1	-1	0.1	O=C(Cc1ccccc1)N1CC[C@@H]2[C@H]1c1cc(C#Cc3cccc(F)c3)ccc1N[C@@H]2CO
-1	3	-3.8	O=S(=O)(c1ccc(F)cc1)N1C[C@H]2[C@@H](c3ccccc31)[C@H](CO)N2Cc1ccc2c(c1)OCO2
-6	-6	-0.1	CCCN1[C@H](C(=O)N2CCCCC2)[C@@H](CO)[C@@H]2Cn3c(ccc(-c4ccccc4F)c3=O)[C@@H]21
1	0	1.2	CCCNC(=O)c1cc2c(c(-c3cccc(-c4ccc(F)cc4)c3)n1)[C@@H](CCO)N([S@](=O)C(C)(C)C)C2
-3	-2	-1.3	O=C1[C@H](Cc2ccc(C(F)(F)F)cc2)CCn2cc(nn2)COC[C@H]2CCCCN12
-6	-8	2.0	C[C@@H]1CN([C@H](C)CO)C(=O)c2c(c3ccccc3n2C)-c2ccccc2CO[C@@H]1CN(C)C(=O)c1ccc(F)cc1
2	-1	3.0	C[C@@H](O)C#Cc1ccc([C@H]2[C@H]3CN(S(=O)(=O)c4ccccc4)CCCCN3[C@H]2CO)cc1
3	2	0.7	COc1ccccc1C#Cc1cnc2c(c1)C(=O)N([C@H](C)CO)C[C@H](C)[C@@H](CN(C)C(=O)CN(C)C)O2
?	·	·	COc1ccccc1S(=O)(=O)N1CC[C@@H]2[C@@H](CO)Nc3ccc(-c4ccccc4)cc3[C@@H]21
-2	-6	3.2	COc1ccc(S(=O)(=O)Nc2ccc3c(c2)C(=O)N([C@@H](C)CO)C[C@H](C)[C@@H](CN(C)C(=O)Nc2cccc4ccccc24)OCCCC[C@@H](C)O3)cc1
3	54	-51	O=C(Nc1ccccc1F)N1CCCCN2[C@H](C1)[C@H](c1ccc(/C=C/c3ccccc3)cc1)[C@@H]2CO
0	-10	10	O=C(NCC1CC1)[C@@H]1[C@@H](CO)[C@@H]2Cn3c(ccc(-c4cccnc4)c3=O)[C@@H]2N1Cc1cocn1
1	0	1.0	O=C(C[C@@H]1C=C[C@H](NC(=O)c2ccccn2)[C@@H](CO)O1)NCc1cccc(F)c1
5	-1	6.7	CC(C)C(=O)Nc1ccc2c(c1)C(=O)N(C)[C@H]1CC[C@@H](CC(=O)NCCCN(C)C)O[C@H]1CO2
-1	-6	5.4	N#C[C@@H]1[C@H](c2ccc(C#Cc3ccc(F)cc3)cc2)[C@@H](CO)N1c1nc(-c2ccccc2)cs1
-1	0	-1.0	C/C=C/c1ccc([C@@H]2[C@H](CO)N(C(=O)COC)[C@H]2CNC(=O)CC)cc1
3	-6	8.7	COc1ccccc1-c1ccc([C@@H]2[C@@H](CO)N3CCCCN(S(=O)(=O)c4cn(C)cn4)C[C@@H]23)cc1
-3	-6	2.9	COc1ccccc1CNC(=O)C[C@@H]1C[C@H]2c3cc(NC(=O)C4CCC4)ccc3O[C@H]2[C@@H](CO)O1
4	5	-1.8	CCC(=O)N1[C@H](CO)[C@@H](c2ccc(-c3ccc(F)cc3)cc2)C12CN(C(C)=O)C2
1	2	-1.0	Cc1noc(C)c1S(=O)(=O)N(C)C[C@H]1Oc2c(NS(=O)(=O)c3cn(C)cn3)cccc2C(=O)N([C@@H](C)CO)C[C@@H]1C
-1	0	-0.5	CCCNC(=O)N1C[C@@H]2[C@H](c3ccccc31)[C@@H](CO)N2Cc1ccc(OC)cc1
0	-2	2.3	CC(C)NC(=O)N1CC2(C1)[C@H](c1ccccc1)[C@H](CO)N2C(=O)C1CCCC1
0	-1	0.8	O=C(N[C@@H]1CC[C@H](CC(=O)N2CCCCC2)O[C@H]1CO)c1ccccn1
?	·	·	CN1c2ccc(C#Cc3ccc(F)cc3)cc2[C@@H]2[C@@H](CCN2S(=O)(=O)c2ccccc2F)[C@H]1CO
?	·	·	C[C@@H](NC(=O)C[C@@H]1C[C@H]2c3cc(NC(=O)Nc4ccccc4F)ccc3O[C@H]2[C@@H](CO)O1)c1ccccc1
-5	-15	9.9	N#Cc1cccc(-c2ccc3c(c2)[C@@H]2[C@@H](CCN2Cc2ccc4c(c2)OCO4)[C@@H](CO)N3)c1
17	18	-1.4	COc1ccc2c3c(n(C)c2c1)[C@@H](CO)N(C(=O)CC1CC1)CC31CCN(Cc2nccs2)CC1
-1	-5	3.7	Cc1noc(C)c1NC(=O)N(C)C[C@H]1OCCCC[C@H](C)Oc2ccc(NS(=O)(=O)c3cn(C)cn3)cc2C(=O)N([C@H](C)CO)C[C@@H]1C
-8	-9	0.5	CN1c2ccc(Br)cc2[C@H]2[C@H](CCN2S(=O)(=O)c2ccccc2F)[C@H]1CO
-3	-8	5.1	O=C(C[C@@H]1CC[C@H]2[C@@H](COC[C@@H](O)CN2CCc2ccccc2)O1)NCCCN1CCOCC1
-7	-10	2.7	O=C(C[C@@H]1CC[C@@H]2[C@H](COC[C@@H](O)CN2Cc2ccccc2F)O1)NCc1ccccc1F
-2	-4	2.3	CCCN1C[C@@H](C)[C@@H](OC)CN(C)C(=O)c2ccc(NC(=O)C3CCOCC3)cc2OC[C@H]1C
1	2	-0.7	C/C=C/c1ccc([C@H]2[C@@H](CO)N3C(=O)CN(Cc4ccc(C(=O)OC)cc4)C[C@H]23)cc1
?	·	·	COc1ccccc1NC(=O)N1CCCCN2[C@H](CO)[C@H](c3ccc(-c4cccc(C#N)c4)cc3)[C@H]2C1
-2	1	-2.2	C[C@@H]1CN([C@@H](C)CO)C(=O)CCCn2cc(nn2)CO[C@H]1CN(C)Cc1cccc(O)c1
-5	-5	-0.1	CO[C@H]1CC[C@@H]2CCN(C)C(=O)C[C@@H](c3ccccc3)CN(C)C(=O)c3cc(C#N)ccc3OC[C@H]1O2
-4	-16	11	O=C(C[C@@H]1CC[C@@H]2[C@H](COC[C@H](O)CN2C(=O)Nc2ccc(Cl)cc2)O1)NC1Cc2ccccc2C1
1	4	-3.3	CN1CCN(C(=O)C[C@@H]2C=C[C@@H](NC(=O)Cc3ccccn3)[C@@H](CO)O2)CC1
2	4	-1.9	CNC[C@@H]1OCCCC[C@@H](C)Oc2ccc(NS(=O)(=O)c3ccc(F)cc3)cc2C(=O)N([C@H](C)CO)C[C@@H]1C
?	·	·	COc1ccc(S(=O)(=O)N(C)C[C@@H]2OCc3ccccc3-c3c(n(C)c4ccccc34)C(=O)N([C@H](C)CO)C[C@@H]2C)cc1
22	2	21	CC(=O)N1CC[C@@H]2[C@H]1c1cc(-c3cccc(F)c3)ccc1N[C@@H]2CO
?	·	·	C/C=C/c1ccc2c(c1)[C@H]1[C@H](CCN1S(=O)(=O)c1ccccc1F)[C@H](CO)N2
-2	0	-2.1	O=C(CN1CCOCC1)N[C@H]1CC[C@H](CCNS(=O)(=O)c2ccccc2F)O[C@H]1CO
3	5	-2.4	COc1ccc(CNC(=O)C[C@H]2CC[C@H](NC(=O)CN(C)C)[C@@H](CO)O2)cc1
2	-4	5.9	CO[C@@H]1CN(C)C(=O)c2cc(C#N)ccc2OC[C@H]2O[C@@H](CC[C@H]2OC)CCN(C)C(=O)[C@H]1C

Some of these compounds in order of length of the SMILES, highest first.
DUX4 txn inh	DUX4 txn inh difference	DUX4 txn inh control	smiles
-3	-6	2.9	COc1ccccc1CNC(=O)C[C@@H]1C[C@H]2c3cc(NC(=O)C4CCC4)ccc3O[C@H]2[C@@H](CO)O1
?	·	·	C/C=C/c1ccc2c(c1)[C@H]1[C@H](CCN1S(=O)(=O)c1ccccc1F)[C@H](CO)N2
0	-1	0.8	O=C(N[C@@H]1CC[C@H](CC(=O)N2CCCCC2)O[C@H]1CO)c1ccccn1
